Source: PubChem BioAssay
Mtb hypoxia inh – reduces hypoxia-regulated biosensor signal in M. tuberculosis; M. tuberculosis hypoxia-regulated fluorescent reporter, fluorescence; fluorescence inhibition, % (no concentration beside the values); hit rate 0.1% among 300,000;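 active = 35 to 45% if threefold the growth effect, above 45% if 1.5-fold the growth effect; inactive = the rest, general growth blockers included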;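 note: wells of about 50 µL received 100 nL stock; 0% = vehicle wells and 100% = reference inhibitor wells; whole bacteria with a GFP reporter of the hypoxia response; strong numbers were not always called active; many hits fall short of the cut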
Autofluor counter – flagged as autofluorescent in microsphere protease counterscreen. hit rate 3.1% among 360,000. AID 624483. compound autofluorescence counterscreen, microsphere flow cytometry; stronger effect = higher value. fluorescence intensity (no concentration beside the values);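 active = at least 3 SD above the mean of all compounds, about 16000 in these data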;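 note: 100 nL of 1 mM stock went into each well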
PrP 5UTR inh – inhibition of PrP 5' UTR reporter expression; hit rate 0.35% among 340,000; cell-based PrP 5' UTR mRNA reporter, plate reader; inhibition, % (no concentration beside the values); AID 488862;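 active = every replicate at 50% or more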;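 note: 0 = median of the neutral control wells; tested in H4 reporter cells; numbers are from one replicate; inactives centre near -14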
BJeLR viability – kills HRASV12-expressing BJeLR cells | BJeLR (HRASV12) viability, CellTiter-Glo ATP luminescence, 48 h; reference of the scale not given here | inhibition, % (test concentration not listed) | hit rate 0.17% among 300,000 | AID 1554;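 active = replicate mean above 50%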;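 note: 50 nL library stock added to about 25 µL; numbers are from one replicate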
Sa ugtP lethal – growth inhibition of S. aureus ugtP deletion strain; S. aureus RN4220 ugtP deletion, OD600 growth, 16 h; some inactives read as strong as hits; hit rate 0.54% among 330,000; growth inhibition, % (concentration not given with the values); AID 1259309;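 active = z-score under -3 and OD600 up to 0.15 on both plates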;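 note: plate controls were untreated wells for no effect and antibiotic for full effect; wells of about 80 µL received 100 nL stock; the first replicate is given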
RN4220 kill – kills Staphylococcus aureus RN4220; S. aureus RN4220 growth, OD600, 16 h; inhibition, % (concentration not given with the values); hit rate 0.33% among 330,000; AID 1259311;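 active = z-score of -3 or lower and OD600 up to 0.18 on both plates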;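 note: plate controls were untreated cells for no effect and reference antibiotic for full effect; stock transfer was 100 nL into about 80 µL; one replicate is shown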
Mtb hypoxia inh growth – also measured in Mtb hypoxia inh; calls as there; growth inhibition, %; measured here: M. tuberculosis growth (absorbance);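 0% = vehicle and 100% = reference antibiotic; read after six days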
* marks the source's active call; other numbers are inactive results; . = no result given.

SMILES	Mtb hypoxia inh	Mtb hypoxia inh growth	Autofluor counter	PrP 5UTR inh	BJeLR viability	Sa ugtP lethal	RN4220 kill
O=C(CSc1nnc(-c2ccccc2)n1C1CCCCC1)N1CCCC1	4	6	8049	-10	1	-11	6.1
O=C(c1cnn2ccccc12)N(Cc1ccco1)C1CCCC1	7	5	6037	-23	5	12	0.5
O=C(C1=C[C@H](c2ccccc2)C[C@H](OCCCCO)O1)N1CCN(Cc2ccc3c(c2)OCO3)CC1	.	.	2720	18	-1	.	.
Clc1ccc(CSc2nnc(-c3ccncc3)s2)cc1	13	-8	5659	-13	-4	7	8.1
CCOc1ccccc1NC(=S)NC(=O)CCc1ccccc1	7	-3	6329	-35	-5	12	2.1
O=C(Nc1ccc(CSc2ccccc2)cc1)c1ccccc1	1	4	5462	-31	4	-4	2.4
N#Cc1ccc2ccn(CC(=O)NCc3ccco3)c2c1	0	5	3841	-18	9	-7	-7.6
O=C(Nc1ccccn1)C1COc2ccccc2O1 (configuration not stated)	2	4	10342	-33	1	4	4.7
CC(C)(C)NC(=O)CC1C[C@H](C(=O)N2CCCCC2)[C@@]2(C)c3[nH]c4ccccc4c3CCN2C1=O (some centres not stated)	4	-4	2999	-17	.	11	2.9
O=C(NCCCNC(=O)c1ccco1)c1cccc(F)c1	5	9	3685	-30	4	7	2.4
COc1ccc(Cl)cc1NC(=S)NNC(=O)c1cccs1	19	17	3211	-8	2	0	9.0
Cc1ccccc1N(C(=O)Cc1cccs1)C(C(=O)NC1CCCCC1)c1cn(C)nc1C (configuration not stated)	6	3	2532	-19	15	-1	3.9
COc1ccc(NC(=O)CSc2nc3ccccc3nc2N2CCOCC2)cc1	10	12	6727	-14	2	0	-7.6
Clc1cccc(-c2ccc(-c3nc4ccccn4c3NCc3ccccc3)cc2)c1	3	3	4016	-63	.	-29	-5.6
CCCOc1cccc(C(=O)NC(=S)Nc2ccc(N3CCN(C)CC3)cc2)c1	22	30	3884	-21	-1	95*	9.2
CCOc1ccc(CCNC(=O)COC(=O)CNC(=O)c2ccc(Br)o2)cc1OCC	4	2	6743	-3	1	3	4.0
O=C(Nc1cccc2ncccc12)c1ccc(-c2ccc(Cl)cc2Cl)o1	2	0	8810	-11	0	-8	2.6
O=C(N/N=C/c1ccoc1)c1ccccc1F	.	.	5988	-27	-4	.	.
Cc1sc2nc(C(C)(C)C)oc(=O)c2c1C	0	1	15458	-14	0	2	-0.1
Cc1c(Br)cnn1C(C)C(=O)N1CCN(c2ccccc2F)CC1 (configuration not stated)	0	11	4219	-2	.	1	0.3
CC(C)n1c(N2CCN(C(=O)Nc3ccc(F)cc3F)CC2)nc2ccccc21	.	.	4382	-10	-3	-2	-3.5
CNC(=O)c1c(NC(=O)CCS(=O)(=O)c2ccc(Cl)cc2)sc2c1CCN(C(=O)OC)C2	10	4	6112	-21	0	3	3.9
CCOC(=O)c1cnc2ccc(C(=O)OC)cc2c1NCCN1CCOCC1	2	5	10783	-23	-7	-4	4.5
O=C(CSc1nc2ccccc2c(=O)n1-c1ccc(Cl)cc1)NN=C/C=C/c1ccccc1[N+](=O)[O-]	-3	1	.	.	.	-10	1.0
CCNC(=O)CC1S/C(=N/N=C(\C)c2ccccc2)NC1=O (configuration not stated)	.	.	2669	-12	-3	.	.
CCC(CC)CN1C(Nc2ccccc2)=NC[C@@H]1CC(C)C	.	.	4548	-22	-7	.	.
CC(C(=O)N1CCN(C2c3ccccc3-c3ccccc32)CC1)N1C(=O)c2ccccc2C1=O (configuration not stated)	0	1	2554	-1	1	-8	8.2
Nc1cc(SCc2ccc(Cl)cc2Cl)ncn1	1	12	3910	-27	.	-3	1.3
COCCn1c(SCC(=O)N2CCCCCC2)nnc1-c1ccco1	3	0	5600	0	14	7	-1.3
CCOC(=O)N1CCC(Nc2c(Nc3cccc(CC)c3)c(=O)c2=O)CC1	0	12	18932*	-95	7	-12	-2.9
CNC(=O)COc1ccc2oc3c(c2c1)CCCC3	17	7	3785	-13	2	-1	5.0
O=C(N/C(=C\c1ccc2c(c1)OCO2)C(=O)N1CCOCC1)c1ccccc1Br	2	8	5721	-17	-9	14	0.2
COc1ccc(C)cc1Nc1n[n+](-c2ccccc2)c(-c2ccc(NC(C)=O)cc2)s1	-2	13	4540	-11	-2	-8	5.6
CCC(=O)NC(=S)NNC(=O)c1ccc([N+](=O)[O-])cc1	-6	5	20381*	-12	17	-3	9.4
Cc1cc(C)cc(NC(=O)CN(C)S(=O)(=O)c2cccc3nsnc23)c1	10	16	4453	-17	-1	-1	1.0
CCn1c(C2CC(=O)N(c3ccc(C)c(C)c3)C2)nc2ccccc21 (configuration not stated)	-4	-5	5751	-15	-3	3	4.8
COC(=O)c1cc(CNC(=O)Cc2ccsc2)ccc1OC	10	8	3945	-22	-1	0	1.5
COc1cccc(/C=N/Nc2cc(-n3nc(C)cc3-c3ccccc3)ncn2)c1O	.	.	10127	-9	24	.	.
c1ccc(CN2CCC(N=C3NN=C(c4ccc5c(c4)OCCO5)CS3)CC2)cc1	-7	2	4318	8	-1	-17	-5.8
O=C(c1ccccc1Br)N1CCN(c2ncccn2)CC1	9	11	3583	-16	4	18	2.8
O=C(NC1CC1)c1ccc(-n2cccc2)cc1	5	3	3055	-12	-7	16	6.8
CCc1nc(NCCCN2CCOCC2)c2oc3ccccc3c2n1	10	4	4289	5	11	3	5.7
O=C(c1ccc(Cl)cc1)C1CCN(Cc2ccccc2)CC1	2	5	6361	7	6	2	0.6
CC1=C(N2CCOCC2)CCC1=O	16	15	3543	-14	-8	2	3.1
Cn1ccc2cc(-c3csc(N4CCC(C(N)=O)CC4)n3)ccc21	15	6	3989	-20	.	1	4.7
NC(=O)c1cc[n+](CC2=C(C(=O)O)N3C(=O)[C@@H](NC(=O)C(c4ccccc4)S(=O)(=O)[O-])[C@H]3SC2)cc1 (some centres not stated)	.	.	4419	-6	-3	.	.
COc1ccc2c(c1)OCC1C2N2C(=O)CN(Cc3ccc(Cl)cc3)C(=O)[C@@]2(C)C1c1ccccc1 (some centres not stated)	5	0	.	.	.	-17	-0.7
CCOC(=O)N1CCN(C(=O)COc2ccccc2[N+](=O)[O-])CC1	0	11	3925	-11	-1	4	0.2
CC(=O)N1CCN(C(=O)c2ccc(Cl)c(NC(=O)c3cccs3)c2)CC1	0	2	5272	-14	2	4	1.4
CC12CN(Cc3ccccc3)CC(C)(CN(Cc3ccccc3)C1)C2=NO	8	8	4808	-22	2	-2	4.0

Single records, from the list above. Values in the order: Mtb hypoxia inh, Mtb hypoxia inh growth, Autofluor counter, PrP 5UTR inh, BJeLR viability, Sa ugtP lethal, RN4220 kill
`CCc1nc(NCCCN2CCOCC2)c2oc3ccccc3c2n1` as listed: 10, 4, 4289, 5, 11, 3, 5.7
`CC1=C(N2CCOCC2)CCC1=O` as listed: 16, 15, 3543, -14, -8, 2, 3.1
`CC(=O)N1CCN(C(=O)c2ccc(Cl)c(NC(=O)c3cccs3)c2)CC1` as listed: 0, 2, 5272, -14, 2, 4, 1.4
`CCOC(=O)N1CCN(C(=O)COc2ccccc2[N+](=O)[O-])CC1` as listed: 0, 11, 3925, -11, -1, 4, 0.2
`COc1ccc2c(c1)OCC1C2N2C(=O)CN(Cc3ccc(Cl)cc3)C(=O)[C@@]2(C)C1c1ccccc1` (some centres not stated) as listed: 5, 0, ., ., ., -17, -0.7

Other entries follow.
SMILES	Mtb hypoxia inh	Mtb hypoxia inh growth	Autofluor counter	PrP 5UTR inh	BJeLR viability	Sa ugtP lethal	RN4220 kill
O=C(Cn1cnc([N+](=O)[O-])n1)N/N=C/c1ccc(O)cc1O	.	.	4856	-39	5	.	.
CCN(CC(=O)Nc1ccccc1C(F)(F)F)C(=O)CCOc1ccccc1C	-3	6	5894	-4	1	0	4.8
CC(C)(C)NC(=O)c1ccnc(C(C)(C)C)c1	5	14	17617*	-7	3	-2	-1.3
Cc1ccc(NS(=O)(=O)c2ccc(C(=O)NCCN3CCOCC3)cc2)cc1	8	6	2782	-11	.	15	5.4
CCCCCOc1ccc(C(=O)NCC2(c3ccccc3)CCOCC2)cc1	6	1	16606*	-23	5	5	-0.3
Cc1ccc(-c2nnc(SCC(=O)NN=Cc3cccs3)n2-c2ccc(C)cc2)cc1	7	3	.	.	.	2	6.2
O=S(=O)(c1ccccc1)N1CCC(=NO)CC1	8	5	4065	-29	7	9	1.8
CCc1ccccc1NC(=O)C1CCCN(c2nccc(C)n2)C1 (configuration not stated)	-2	-1	3785	3	-2	8	1.4
CC(C)C(=O)O/N=C(\N)c1ccccn1	5	8	7655	-24	-5	2	1.3
CCn1ncc(Cl)c1C(=O)Nc1cc([N+](=O)[O-])ccc1OC	-4	1	2037	0	-8	3	-0.6
Cc1cc(C)n(CC(O)Cn2c3ccc(Cl)cc3c3cc(Cl)ccc32)c(=O)n1 (configuration not stated)	6	4	9546	-23	3	-23	-21
O=C(COC(=O)c1cccc(S(=O)(=O)N2CCOCC2)c1)Nc1ccc(Cl)cn1	-1	6	7953	-15	.	9	4.2
CC1(c2nnc(-c3cccc(Cl)c3)o2)CC(c2ccc(F)cc2)=NO1 (configuration not stated)	2	-3	3959	-15	-24	-7	4.3
O=C(NCCN1CCCCC1)c1ccc(Oc2cc(Cl)cc(Cl)c2)o1	5	2	3411	-15	-1	7	1.5
CN(C)Cc1c(O)ccc2occ(C(O)c3ccccc3)c12 (configuration not stated)	.	.	2384	3	-5	-4	1.3
O=C(OCc1nnc(-c2ccccc2)o1)C12CC3CC(CC(Br)(C3)C1)C2	13	5	4806	-53	1	3	23
O=c1c(-c2ccccc2)c(O)c2cccc3c2n1CCC3	-1	1	4529	5	10	-1	0.7
O/N=C1\CCCC\C1=C/c1ccccc1	.	.	2030	-10	-4	.	.
CCOc1ccc(OCc2cccc(C(=O)O)c2)cc1	3	3	22901*	93*	55*	23	3.6
Cc1cc(C(=O)NC2CCCN(Cc3ccccc3F)C2)no1 (configuration not stated)	4	-6	6316	-10	4	1	1.3
CC1(C)CC(=O)C2=C(C1)NC1=C(C(=O)c3ccccc31)C2c1ccccc1 (configuration not stated)	9	2	2633	-34	-14	-6	4.9
COC(=O)C1=C(C)Nc2ncnn2C1c1ccc(OC(=O)c2ccccc2)cc1 (configuration not stated)	6	7	9902	-32	-3	-1	4.9
Nc1nc2cc(S(=O)(=O)N3CCOCC3)ccc2o1	8	3	3697	-17	.	-1	0.1
C/C(CC(=O)Nc1ccc2c(c1)OCCO2)=N\NC(=O)COc1ccc(Cl)c(C)c1	.	.	5578	-15	-12	.	.
O=C(C1CCCO1)N1CCN(C(=S)Nc2ccccc2Cl)CC1 (configuration not stated)	-12	2	2060	-8	1	8	0.3
O=C(Nc1ccc2nn(-c3ccccc3)nc2c1)c1ccco1	.	.	4598	-71	10	13	-2.5
NC(=S)N/N=C1/CCSc2ccc3ccccc3c21	.	.	4806	10	-4	.	.
N#CCC(=O)Nc1ccc(C(=O)OCC(=O)Nc2ccc3ccccc3c2)cc1	2	4	8451	-14	.	-6	-1.0
C=CCc1ccccc1OCC(=O)N/N=C/c1ccc(OC(C)=O)cc1OC(C)=O	.	.	1991	13	-1	.	.
O=C(O)CCC(=O)c1ccc2c(c1)CCCC2	-3	8	4497	-2	-2	4	-2.2
COc1ccc(CNS(=O)(=O)c2ccc(F)c(C(=O)Nc3ccccc3OC)c2)cc1	-4	0	4147	-26	6	0	-0.6
Cc1nc2ncnn2c(C)c1CCC(=O)N1CCOCC1	-1	1	22539*	-13	-6	-1	-0.5
C=CCC(NCCCO)c1cccc(OC)c1OC (configuration not stated)	.	.	4509	-18	-4	2	1.2
C/C(Cl)=C/Cc1c(C)[nH]c2c(ccc3ccccc32)c1=O	-10	-4	4699	-5	23	-5	5.6
CC(=O)N1c2ccc(S(=O)(=O)NCC3CCC(C(=O)NC4CCCCC4)CC3)cc2CC1C (configuration not stated)	-4	-5	5247	-16	11	0	-0.8
O=C(Oc1ccc(C(=S)N2CCOCC2)cc1)c1cccc(Cl)c1	12	8	8878	-3	-7	16	6.1
COCc1cc(Sc2ccc(Cl)cc2)nc(-c2ccccc2)n1	.	.	4834	-12	3	72	-12
COc1ccc(C=N/N=C2/NC(=O)C(CC(=O)O)S2)cc1OCc1ccccc1Cl (configuration not stated)	-17	4	.	.	.	0	3.6
